Screening results (PubChem BioAssay)
HCMV UL50-53 inh: inhibitors of HCMV UL50-UL53 nuclear egress complex interaction; inhibition, % (concentration not given with the values); HTRF UL50-UL53 interaction, normalized percent inhibition; hit rate 0.15% among 190,000;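 active means both replicates at 50% or more, plus weaker picks with an unusually low signal ratio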;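 further: stock transfer was 100 nL into about 20 µL; 0% = negative control wells and 100% = wells with untagged competitor protein; inactives centre near -12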
GIV Gai3 FP: GIV-Galpha-i interaction inhibition; Galpha-i3/FITC-GIV peptide fluorescence polarization, 90 min; active compounds read low; scaled: aluminum fluoride 0%, vehicle 100%; percent of control (FP), % (no concentration beside the values); hit rate 0.42% among 210,000;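 active means replicate mean at 85% of control or lower, very high polarization wells dropped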;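 further: wells of about 15 µL received 100 nL stock; the first replicate is given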
Target sequence (P08753 whole entry, looked up): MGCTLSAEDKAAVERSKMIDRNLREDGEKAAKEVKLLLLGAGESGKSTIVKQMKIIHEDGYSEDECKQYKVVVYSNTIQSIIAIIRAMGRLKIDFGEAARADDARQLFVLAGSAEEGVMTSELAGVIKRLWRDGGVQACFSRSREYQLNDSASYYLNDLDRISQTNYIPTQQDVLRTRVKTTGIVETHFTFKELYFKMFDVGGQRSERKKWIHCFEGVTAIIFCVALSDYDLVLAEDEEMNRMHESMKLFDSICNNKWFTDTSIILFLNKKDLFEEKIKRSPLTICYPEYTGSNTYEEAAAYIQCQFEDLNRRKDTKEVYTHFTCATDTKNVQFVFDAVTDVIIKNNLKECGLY
Sa growth 42C: inhibitors of Staphylococcus aureus growth at 42 °C; relative growth, % (concentration not given with the values); hit rate 0.53% among 170,000; S. aureus RN4220 growth, OD600, 20 h; active compounds read low;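 active means growth at 42 °C up to 50% and 20 or more points under that at 30 °C, or under 10% at both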;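 further: 300 nL library stock went into each well; scaled to the means of positive and negative controls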
Sa growth 42C second temp: further read-out of Sa growth 42C, marked with its call; relative growth, %; measured here: growth at 30 °C;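 optical density after 20 h as mean of two plates; 100% = untreated growth and lower means inhibition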
* hit, by the source's call.

`COc1ccccc1-n1cnc2cc(C(=O)NCC3CCCO3)ccc21` (stereo not given) gave HCMV UL50-53 inh -35, GIV Gai3 FP 103, Sa growth 42C 99 and Sa growth 42C second temp 84.
For O=C(Cn1c(SCc2cccc(F)c2)nc2ccncc21)NCCC1=CCCCC1 the results were HCMV UL50-53 inh 4, GIV Gai3 FP 99, Sa growth 42C 88 and Sa growth 42C second temp 71.
Screening O=C(NN=Cc1ccc(O)cc1)c1ncn[nH]1 returned HCMV UL50-53 inh -38, GIV Gai3 FP 102, Sa growth 42C 103 and Sa growth 42C second temp 79.
Screening CCC1=Nc2cc(C(=O)O)ccc2Sc2ccc(Cl)cc21 returned GIV Gai3 FP 101, Sa growth 42C 85 and Sa growth 42C second temp 62.
`CCOc1ccc(OC(C)C(=O)O)cc1` (stereo not given) gave HCMV UL50-53 inh -25, GIV Gai3 FP 99, Sa growth 42C 89 and Sa growth 42C second temp 90.
For CCn1c(NN)nc2ccccc2c1=O the results were HCMV UL50-53 inh -16, Sa growth 42C 89 and Sa growth 42C second temp 76.
COc1ccc(-c2nc(C)c(CCNC(=O)c3c(F)cccc3F)s2)cc1 was read as GIV Gai3 FP 97, Sa growth 42C 111 and Sa growth 42C second temp 82.
Screening O=C(C1CCCN(S(=O)(=O)c2cccc3nonc23)C1)N1CCN(c2cccc(C(F)(F)F)c2)CC1 (stereo not given) returned HCMV UL50-53 inh -6, GIV Gai3 FP 112, Sa growth 42C 110 and Sa growth 42C second temp 101.
`CCc1nc2scc(-c3cccs3)c2c(=O)o1` gave HCMV UL50-53 inh -14 and GIV Gai3 FP 106.
CC[C@H]1OC(=O)C[C@@H](O)[C@H](C)[C@@H](O[C@@H]2O[C@H](C)[C@@H](O[C@H]3C[C@@](C)(O)[C@@H](O)[C@H](C)O3)[C@H](N(C)C)[C@H]2O)[C@@H](CC=O)C[C@@H](C)C(=O)/C=C/C(C)=C/[C@@H]1CO[C@@H]1O[C@H](C)[C@@H](O)[C@@H](OC)[C@H]1OC was read as HCMV UL50-53 inh -45, Sa growth 42C -0.2* and Sa growth 42C second temp -0.8*.
`O=C1COc2ccc(Cl)cc2N1Cc1nc(-c2ccc(N3CCOCC3)cc2)no1` gave HCMV UL50-53 inh -6 and GIV Gai3 FP 115.
For CC(C)NC(=O)c1ccc2c(=O)n3c(nc2c1)CCCC3 the results were HCMV UL50-53 inh -18 and GIV Gai3 FP 104.
Cc1ccc(-n2cnc3cc(C(=O)NCc4ccccc4Cl)ccc32)c(C)c1 was read as GIV Gai3 FP 99, Sa growth 42C 74 and Sa growth 42C second temp 92.
`Cc1ccc(C(=O)NCC(=O)NC2CC2)cc1` gave HCMV UL50-53 inh -18, Sa growth 42C 90 and Sa growth 42C second temp 87.
Screening COc1cc(CNc2ccc3[nH]c(=O)[nH]c3c2)cc(Br)c1OCC(=O)NC(C)(C)C returned GIV Gai3 FP 99, Sa growth 42C 106 and Sa growth 42C second temp 78.
For CN1CCN(C(=O)C2CCN(c3ccc(Cl)cc3)C2=O)CC1 (stereo not given) the results were HCMV UL50-53 inh -33 and GIV Gai3 FP 101.
Screening O=C(CN1C(=O)c2ccccc2C1=O)Nc1ccccc1C(=O)N1CCCC1 returned HCMV UL50-53 inh -15, GIV Gai3 FP 107, Sa growth 42C 136 and Sa growth 42C second temp 97.
Cc1c(Cl)cccc1NC(=O)CNS(=O)(=O)c1cccs1 was read as GIV Gai3 FP 127, Sa growth 42C 110 and Sa growth 42C second temp 88.
For Oc1ccccc1C1OC2CCCCC2C2=CCCCC21 (stereo not given) the results were HCMV UL50-53 inh 1, GIV Gai3 FP 102, Sa growth 42C 93 and Sa growth 42C second temp 68.
Screening CCc1nc2ccccc2c(=O)n1CCCCn1c(CC)nc2ccccc2c1=O returned HCMV UL50-53 inh -17, GIV Gai3 FP 104, Sa growth 42C 93 and Sa growth 42C second temp 82.
`CCOC(=O)CN1CCN(C=O)CC1` gave HCMV UL50-53 inh 2, Sa growth 42C 106 and Sa growth 42C second temp 95.
`Cc1ccc(S(=O)(=O)N2CCN(c3ccccc3)CC2)s1` gave HCMV UL50-53 inh 16, Sa growth 42C 86 and Sa growth 42C second temp 97.
Screening Cc1cccc(N2CC(c3nc4ccccc4n3CCC3CCCCC3)CC2=O)c1 (stereo not given) returned HCMV UL50-53 inh -3, GIV Gai3 FP 102, Sa growth 42C 105 and Sa growth 42C second temp 85.
For O=C(CSc1nccn2nc(-c3ccccc3)cc12)NCc1ccccc1Cl the results were HCMV UL50-53 inh -35 and GIV Gai3 FP 101.
Screening NS(=O)(=O)c1ccc(CCNc2nc3c(-c4ccc(Cl)cc4)nnn3c3ccccc23)cc1 returned GIV Gai3 FP 101, Sa growth 42C 87 and Sa growth 42C second temp 92.
`O=S(=O)(c1ccccc1)n1ccc(-c2ccc3c(c2)CCO3)n1` gave HCMV UL50-53 inh -9, GIV Gai3 FP 94, Sa growth 42C 80 and Sa growth 42C second temp 85.
COc1ccc(Cn2c(NCC(C)C)nc3c2c(=O)n(C)c(=O)n3C)cc1 was read as HCMV UL50-53 inh -36, GIV Gai3 FP 111, Sa growth 42C 108 and Sa growth 42C second temp 87.
Screening CNC(=O)CSc1ccc(Cl)cc1 returned HCMV UL50-53 inh -8, Sa growth 42C 90 and Sa growth 42C second temp 88.
Screening Cc1ccc(CSc2nc3ccc(C(=O)NCCN4CCCC4)cc3n2C)cc1 returned GIV Gai3 FP 112, Sa growth 42C 121 and Sa growth 42C second temp 92.
For O=C(NC(O)C(=O)c1ccccc1)c1ccccn1 (stereo not given) the results were HCMV UL50-53 inh -14, Sa growth 42C 113 and Sa growth 42C second temp 78.
`Cn1cccc1CNC(=O)c1cc(F)cc2c1OCOC2` gave HCMV UL50-53 inh 2, GIV Gai3 FP 105, Sa growth 42C 105 and Sa growth 42C second temp 62.
Screening CCC(=O)Nc1cccc(-c2ccc(N3CCC(C)CC3)nn2)c1 returned HCMV UL50-53 inh -30, GIV Gai3 FP 104, Sa growth 42C 86 and Sa growth 42C second temp 82.
For COc1ccc(N2CCN(C(=O)COc3cc(=O)n(C)c4ccccc34)CC2)cc1 the results were HCMV UL50-53 inh 1, GIV Gai3 FP 108, Sa growth 42C 104 and Sa growth 42C second temp 95.
Screening CCCc1nnc2c3c4c(sc3ncn12)CC(C)CC4 (stereo not given) returned HCMV UL50-53 inh -19 and GIV Gai3 FP 101.
For COc1ccc(Br)cc1/C=C1\N=C(c2cc([N+](=O)[O-])ccc2Cl)OC1=O the results were HCMV UL50-53 inh -22 and GIV Gai3 FP 104.
For O=C(c1cccs1)N1c2ccccc2C=Cc2ccccc21 the results were HCMV UL50-53 inh -16, Sa growth 42C 82 and Sa growth 42C second temp 92.
`O=C(NCC(c1cccs1)S(=O)(=O)c1cccs1)c1ccccc1F` (stereo not given) gave GIV Gai3 FP 98, Sa growth 42C 106 and Sa growth 42C second temp 78.
Screening CCOC(=O)CNc1nc2ccccc2n2cnnc12 returned HCMV UL50-53 inh -3, GIV Gai3 FP 130, Sa growth 42C 116 and Sa growth 42C second temp 104.
For N#CCC(=O)NS(=O)(=O)c1ccc(Cl)cc1 the results were HCMV UL50-53 inh -13, GIV Gai3 FP 96, Sa growth 42C 89 and Sa growth 42C second temp 87.
CSc1nc(CN2CCN(S(=O)(=O)Cc3ccccc3)CC2)cc(=O)[nH]1 was read as HCMV UL50-53 inh -18, Sa growth 42C 94 and Sa growth 42C second temp 98.
`CCOC(=O)c1nnn2c1nc(N1CCN(c3ccccc3)CC1)c1ccccc12` gave HCMV UL50-53 inh -31, GIV Gai3 FP 102, Sa growth 42C 104 and Sa growth 42C second temp 88.
`Cc1ccc(-n2c(=O)cc(N3CCN(c4ccccc4Cl)CC3)[nH]c2=O)cc1` gave GIV Gai3 FP 93, Sa growth 42C 91 and Sa growth 42C second temp 85.
COc1cc(CC2C(=O)N(C)c3ccccc32)cc(Br)c1OC (stereo not given) was read as HCMV UL50-53 inh -16 and GIV Gai3 FP 105.
Screening Clc1ccc(OCCN2CCN(c3nc4ccccc4c4nc(-c5ccncc5)nn34)CC2)cc1 returned HCMV UL50-53 inh 2, GIV Gai3 FP 98, Sa growth 42C 86 and Sa growth 42C second temp 92.
COCCCNC(=O)C1CCCN(c2ncnc3onc(C)c23)C1 (stereo not given) was read as GIV Gai3 FP 99, Sa growth 42C 87 and Sa growth 42C second temp 79.

Filtered by structure: the entries above with an NH in an aromatic ring.
Screening O=C(NN=Cc1ccc(O)cc1)c1ncn[nH]1 returned HCMV UL50-53 inh -38, GIV Gai3 FP 102, Sa growth 42C 103 and Sa growth 42C second temp 79.
Screening COc1cc(CNc2ccc3[nH]c(=O)[nH]c3c2)cc(Br)c1OCC(=O)NC(C)(C)C returned GIV Gai3 FP 99, Sa growth 42C 106 and Sa growth 42C second temp 78.
CSc1nc(CN2CCN(S(=O)(=O)Cc3ccccc3)CC2)cc(=O)[nH]1 was read as HCMV UL50-53 inh -18, Sa growth 42C 94 and Sa growth 42C second temp 98.
`Cc1ccc(-n2c(=O)cc(N3CCN(c4ccccc4Cl)CC3)[nH]c2=O)cc1` gave GIV Gai3 FP 93, Sa growth 42C 91 and Sa growth 42C second temp 85.

The list continues:
`CC1C/C(=N/Nc2nc3ccccc3[nH]2)CC(C)(C)C1` (stereo not given) gave HCMV UL50-53 inh -19, Sa growth 42C 83 and Sa growth 42C second temp 89.
Screening N#CCc1c2ccccc2c(CC#N)c2ccccc12 returned HCMV UL50-53 inh 48, GIV Gai3 FP 100, Sa growth 42C 117 and Sa growth 42C second temp 94.
Screening Nc1nc(=S)c2[nH]cnc2[nH]1 returned HCMV UL50-53 inh -27, Sa growth 42C 25 and Sa growth 42C second temp 17.
`COc1ccc(C2=NC(=O)/C(=C\c3cc(OC)c(OC)c(OC)c3)O2)cc1` gave GIV Gai3 FP 118, Sa growth 42C 131 and Sa growth 42C second temp 90.
Cc1ccc(S(=O)(=O)N(CC(=O)Nc2ccc(S(=O)(=O)N3CCCCC3)cc2)c2ccccc2)cc1 was read as HCMV UL50-53 inh 1 and GIV Gai3 FP 101.
O=C(c1ccc(Cn2c(=O)c(=O)n(Cc3cccc(Cl)c3)c3cccnc32)cc1)N1CCOCC1 was read as HCMV UL50-53 inh 4 and GIV Gai3 FP 98.
Screening CC(C)Cc1ccc(C(C)C(=O)N2CCN(c3ccc(C(F)(F)F)cn3)CC2)cc1 (stereo not given) returned HCMV UL50-53 inh -48, GIV Gai3 FP 98, Sa growth 42C 100 and Sa growth 42C second temp 90.
`O=c1cc(CN2CCN(CCO)CC2)nc2nc(-c3ccc(Cl)cc3)[nH]n12` gave HCMV UL50-53 inh -27 and GIV Gai3 FP 104.
Screening CN(C)S(=O)(=O)c1cccc(CSc2nnc(Cc3cccs3)n2C2CCCCC2)c1 returned HCMV UL50-53 inh -11, Sa growth 42C 91 and Sa growth 42C second temp 92.
`O=C(CSc1ncn[nH]1)Nc1nccs1` gave HCMV UL50-53 inh 5, GIV Gai3 FP 99, Sa growth 42C 90 and Sa growth 42C second temp 66.
COc1cccc(CNC(=O)N2CC3CCCN3c3ccccc32)c1 (stereo not given) was read as HCMV UL50-53 inh -21, GIV Gai3 FP 106, Sa growth 42C 108 and Sa growth 42C second temp 79.
`CCOC(=O)C1=C(N)OC2=C(C(=O)CCC2)C1c1ccc2c(c1)OCO2` (stereo not given) gave HCMV UL50-53 inh -18 and GIV Gai3 FP 106.
`O=C(Nc1ccc(Cl)cc1)C1CCN(c2ccccc2)C1=O` (stereo not given) gave HCMV UL50-53 inh -26 and GIV Gai3 FP 100.
CCOc1ccc(-n2c(SCC(=O)NCc3ccccc3)nc3n[nH]c(C)c3c2=N)cc1 was read as GIV Gai3 FP 104, Sa growth 42C 115 and Sa growth 42C second temp 82.
For O=C(C1CCC(=O)N1S(=O)(=O)c1ccccc1)N1CCN(C2CCCCC2)CC1 (stereo not given) the results were HCMV UL50-53 inh -24 and GIV Gai3 FP 105.
Screening Cc1oc2ncnc(N3CCC(C(=O)Nc4ccccc4Cl)CC3)c2c1C returned HCMV UL50-53 inh -29 and GIV Gai3 FP 101.
For Cc1ccc2ccc3cc(C(=O)N4CCN(C5CCCCC5)CC4)nc3c2[nH]1 the results were HCMV UL50-53 inh -1 and GIV Gai3 FP 104.
COc1ccccc1NC(=O)Cn1c(=O)n(Cc2ccco2)c(=O)c2cccnc21 was read as HCMV UL50-53 inh -24, GIV Gai3 FP 106, Sa growth 42C 106 and Sa growth 42C second temp 92.
O=C(Cc1ccccc1)Nc1c(C(=O)c2ccccc2)oc2ccccc12 was read as HCMV UL50-53 inh -64, GIV Gai3 FP 107, Sa growth 42C 106 and Sa growth 42C second temp 77.
For COCC(C)n1c(C)csc1=Nc1ccc(Cl)c(F)c1 (stereo not given) the results were HCMV UL50-53 inh 5, Sa growth 42C 85 and Sa growth 42C second temp 86.
For CN=c1scc(-c2ccc(OC)cc2)n1/N=C(\C)c1cccnc1 the results were HCMV UL50-53 inh -17, Sa growth 42C 82 and Sa growth 42C second temp 67.
For Cc1occc1-c1nnc(SC(C)C(=O)NC(C)c2ccc(Cl)cc2Cl)n1C (stereo not given) the results were HCMV UL50-53 inh -8, Sa growth 42C 97 and Sa growth 42C second temp 96.
Screening Cc1ccc(S(=O)(=O)N2CCCC3(CCCCC3)C2)cc1 returned GIV Gai3 FP 97, Sa growth 42C 88 and Sa growth 42C second temp 78.
For NCc1ccoc1C(=O)O the results were HCMV UL50-53 inh 4, GIV Gai3 FP 104, Sa growth 42C 90 and Sa growth 42C second temp 92.
